Screening data from PubChem BioAssay.
Marburg entry inh – inhibitors of Marburg virus binding or cell entry. AID 540276. Potency, µM (highest dose often 37.8 µM), for the others: top-dose activity change, negative = inhibition, actives largely listed as inhibitors. hit rate 1.8% among 300,000. Marburg virus pseudotyped entry inhibition, cell reporter; control for the full effect not named in the record; about a third of the inactives were read at about 46 µM; active = well fitted inhibition curve with a large enough effect; inconclusive = small, poorly fitted or top-dose-only effect, or effect the other way; inactive = flat fitted curve, though single readings scatter; tested in HEK293 cells; about a fifth of its hits are not listed in these tables; further: on the % scale 0 is the no-effect control and ±100 the full control effect; luciferase read-out
RE007 growth inh – less growth of the S. pombe RE007 Vpr strain; S. pombe RE007 Vpr strain, BacTiter-Glo ATP luminescence, 24 h; control for the full effect not named in the record; hit rate 0.21% among 360,000; Potency, µM (highest dose often 92.2 µM), inactives show at the highest dose activity change, negative = less growth; active = well fitted falling curve with a large enough effect; inconclusive = small, poorly fitted or top-dose-only effect; inactive = no such curve, though single readings can be large or run the other way;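 further: on the % scale 0 is the no-effect control and ±100 the full control effect; nearly all actives have a fitted effect of over 50% in size; the assay follows cell death caused by Vpr and the record does not say whether a fall means rescue or toxicity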
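Fission yeast RE007 carrying one integrated HIV-1 vpr copy, seeded at OD 0.01 in PMG+AL medium with 23 nL pinned compound. Grown 24 h at 30 degrees; viability read by BacTiter-Glo luminescence after 5 min.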
2A StopGo – FMDV 2A StopGo reporter, luciferase signal. human cells with a luciferase reporter of 2A StopGo recoding; control for the full effect not named in the record. Potency, µM (series often up to 57.9 µM), inactives show at the top dose signal change, negative = less light. hit rate 1.2% among 410,000; active = well fitted falling curve with a large enough effect; inconclusive = small, poorly fitted or top-dose-only effect; inactive = no such curve, though single readings can be large or run the other way; tested in HEK293T cells; further: on the % scale 0 is the no-effect control and ±100 the full control effect; nearly all actives have a fitted effect of over 45% in size; luciferase light after 4 h
LASV entry inh – Lassa virus entry inhibition; Lassa virus pseudotype entry inhibition, cell reporter; control for the full effect not named in the record; Potency, µM (doses to about 37.9 µM), inactives show at the top dose activity change, negative = inhibition, actives largely listed as inhibitors; hit rate 1.2% among 300,000; active means well fitted inhibition curve with a large enough effect; inconclusive means small, poorly fitted or top-dose-only effect, or effect the other way; inactive means flat fitted curve, though single readings scatter; tested in HEK293 cells; further: on the % scale 0 is the no-effect control and ±100 the full control effect; nearly all actives have a fitted effect of over 50% in size; luciferase read-out
Cruzain noTriton – blocks cruzain activity in detergent-free assay. P25779. purified cruzain, Z-FR-AMC fluorescence, no detergent. Potency, µM, inactives show max response, negative = inhibition, most hits filed as inhibitors. hit rate 2.3% among 200,000. AID 1476;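 further: plate controls were enzyme without inhibitor for no effect and buffer without enzyme for full effect; nearly all actives have a fitted effect of over 40% in size; top concentration of the series not given in the record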
Target sequence (P25779 123-467 limits assumed): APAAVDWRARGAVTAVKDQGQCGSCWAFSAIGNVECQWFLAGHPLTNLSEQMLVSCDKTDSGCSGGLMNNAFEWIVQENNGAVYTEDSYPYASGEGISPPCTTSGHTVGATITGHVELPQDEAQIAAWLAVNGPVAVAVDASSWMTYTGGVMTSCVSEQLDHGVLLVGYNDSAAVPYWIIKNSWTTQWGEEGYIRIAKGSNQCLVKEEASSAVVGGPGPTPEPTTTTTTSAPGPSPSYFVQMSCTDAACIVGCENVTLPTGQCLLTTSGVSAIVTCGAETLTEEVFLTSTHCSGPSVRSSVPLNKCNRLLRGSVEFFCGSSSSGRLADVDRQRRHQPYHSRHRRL
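Detergent-free condition (0.00005% Triton X-100) in acetate buffer pH 5.5 with DTT. 1.5 nM enzyme and compound were pre-mixed 15 min, then 2 uM Z-FR-AMC substrate added; reaction progress from fluorescence change between first and third reads (60 s).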
SARS PLpro yeast – inhibitors of SARS-CoV papain-like protease in yeast. S. cerevisiae expressing SARS-CoV PLpro, growth rescue; control for the full effect not named in the record. Potency, µM (doses to about 32.9 µM), inactives show at the highest dose activity, positive = growth rescue. hit rate 0.19% among 330,000. AID 485353; active means well fitted rising curve with a large enough effect; inconclusive means small, poorly fitted or top-dose-only effect; inactive means no such curve, though single readings can be large or run the other way; further: 0% is about no effect; nearly all actives have a fitted effect of over 55% in size; growth read by luminescence after 48 h
Cruzain inh Det – cruzain (T. cruzi) inhibition with detergent. P25779. purified cruzain, Z-FR-AMC fluorescence, 0.01% Triton. Potency, µM, inactives show max response, negative = inhibition, actives largely listed as inhibitors. hit rate 0.43% among 200,000. AID 1478;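 further: plate controls were neutral wells for no effect and buffer without enzyme for full effect; nearly all actives have a fitted effect of over 40% in size; top concentration of the series not given in the record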
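Purified cruzain (1.5 nM final) was preincubated with compounds for 15 min at room temperature in 100 mM sodium acetate pH 5.5, 5 mM DTT, 0.01% Triton X-100. Reaction started with 2 uM Z-FR-AMC; AMC fluorescence change over 60 s gave activity.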
NS1 inh – inhibitors of influenza NS1 protein function; S. cerevisiae slowed by influenza A NS1, growth recovery by OD600; Potency, µM (doses to about 46.1 µM), without a hit: at the top dose activity, positive = more growth; hit rate 0.4% among 270,000; AID 2326; active means well fitted rising curve with a large enough effect; inconclusive means small, poorly fitted or top-dose-only effect; inactive means no such curve, though single readings can be large or run the other way; further: nearly all actives have a fitted effect of over 50% in size
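S. cerevisiae expressing influenza A NS1, grown in glucose, washed, then diluted 1:100 into pH 6.0 -URA galactose medium with 23 nl compound. Growth recovery read as OD600; NS1-free strain serves as control.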
Numbers without * were called inactive; u = inconclusive; x = not tested or not shown; & = joins results of further samples; [ ] = another dose, or the depositor's remark. Unless noted, the call rests on the fitted dose curve; in most records, active means well fitted curve in the direction sought with a large enough effect; inconclusive means small, poorly fitted or top-dose-only effect, or another doubt; inactive means no such curve, though single readings can be large; an effect the other way counts as inactive or inconclusive. Potency means the concentration at half of the fitted maximal effect. Compounds as they come (roughly 4.7% active in at least one column).

SMILES	Marburg entry inh	RE007 growth inh	2A StopGo	LASV entry inh	Cruzain noTriton	SARS PLpro yeast	Cruzain inh Det	NS1 inh
CN(C)c1ccc(NC(=O)CN2CCC(N3CCCCC3)CC2)cc1	7%	-2%	-27%	4%	0%	-5%	2.4%	9%
COc1ccc(S(=O)(=O)N2CCC(C(=O)N3CCOCC3)CC2)cc1	15%	18%	-1%	5%	8%	18%	-2.2%	-15%
N#C/C(=C\c1ccc(O)c([N+](=O)[O-])c1)c1nc2ccccc2s1	-1%[46.1 µM]	-8%	-10%	u	x	-4%	x	x
C=CCn1c(O)c(Cc2ccc(OCC)cc2)c(=O)[nH]c1=O	-4%[46.1 µM]	5%	-7%	1%[46.1 µM]	x	0%	x	0%
COc1ccc(C(=O)Nc2c(-c3ccccc3)nc3ccccn23)c(OC)c1	x	9%	-22%	x	x	1%	x	2%
O=[N+]([O-])c1ccccc1/C=C/CN1CCCCC1CO (stereo not given)	x	5%	-18%	x	x	3%	x	1%
CC(C)CN(C(=O)CN(C)C(=O)c1ccco1)c1c(N)n(CC(C)C)c(=O)[nH]c1=O	16%	3%	-7%	12%	x	1%	x	x
CCn1cc(C(=O)N[C@@H](CCSC)C(=O)NCCOC)c(=O)c2cc3c(cc21)OCO3	29%[46.1 µM]	-7%	-4%	20%[46.1 µM]	x	0%	x	-1%
COC(=O)c1ccccc1NC(=O)C1(S(=O)(=O)c2ccc(Cl)cc2)CC1	u	7%	-13%	24%[46.1 µM]	x	-2%	x	6%
COc1ccc(CN(C(=O)c2ccccc2F)C2CCS(=O)(=O)C2)cc1 (stereo not given)	8%[46.1 µM]	x	5%	4%[46.1 µM]	13%	x	-1.3%	x
COc1cc(C(=O)Nc2ccc3nc4n(c(=O)c3c2)CCCC4)ccc1Br	x	6%	-9%	x	x	-2%	x	2%
CCCN(CCC)CCNS(=O)(=O)c1ccc2c(c1)CCN2C(=O)C1CCC1	u	-9%	x	-9%	0%	1%	1.8%	-1%
CSc1nc2nc3c(cc2c(=O)n1-c1ccccc1C)COC(C)(C)C3	x	34%	u	x	x	-1%	x	-7%
COc1ccccc1C(=O)NNC(=O)C12CC3CC(CC(C3)C1)C2	8%[46.1 µM]	-5%	16%	12%[46.1 µM]	x	7%	x	-2%
CC(Sc1ccccc1)C(=O)Nc1ccc(S(=O)(=O)N2CCOCC2)cc1 (stereo not given)	8%	-15%	5%	-11%	-11%	2%	-1.7%	-15%
CC(C)[C@H](NC(=O)Nc1ccccc1F)C(=O)O	1%	11%	-9%	12%	-13%	-1%	4.6%	0%
CC(=O)N1CC(C)Sc2ccc(S(=O)(=O)NCCc3ccccc3)cc21 (stereo not given)	x	3%	-4%	x	x	2%	x	0%
CCN(CC)S(=O)(=O)c1ccc2c(c1)N(CC(=O)Nc1ccc(OC)cc1)C(=O)CS2	-20%[46.1 µM]	x	7%	x	5%	x	-5.0%	x
c1ccc(NCc2ccccn2)cc1	24%	0%	29%	u	x	0%	x	5%
COc1ccc2c(c1)CC/C(=C\C=C\c1ccccc1OC)C2=O	-26%	-9%	22%	u	u	0%	-8.7%	-5%
COc1cc(OC)cc(C(=O)N[C@H](C(=O)Nc2cc(C)cc(C)c2)C(C)C)c1	-2%[46.1 µM]	6%	6%	-23%	x	-4%	x	x
CCSc1nnc(-c2cc(Br)ccc2N)c(=O)[nH]1	-7%[46.1 µM]	6%	5%	9%[46.1 µM]	x	-1%	x	5%
C/C(=N\NC(=O)c1ccco1)c1ccc(NC(=O)c2ccccc2)cc1	-23%[46.1 µM]	-17%	13%	u	x	0%	x	x
O=C(O)C1C2CCC(C2)C1C(=O)Nc1ccc(Cl)c(Cl)c1 (stereo not given)	-8%	-5%	-5%	u	x	x	x	x
COc1ccccc1C(=O)NC(=O)COc1ccc(Cl)cc1Cl	-9%[46.1 µM]	-24%	-2%	0%	x	-12%	x	x
C/C(=N\OCc1ccc(C#N)cc1)c1cc2ccccc2o1	u	-19%	-1%	0%[46.1 µM]	x	-8%	x	-60%
COc1ccccc1NC(=O)CCN1CCN(C)CC1	x	-1%	-7%	x	x	0%	x	6%
CC1CCc2nc(NC(=O)C3CCCO3)sc2C1 (stereo not given)	u	13%	-8%	u	-13%	-2%	-5.5%	0%
COC(=O)Cc1ccc(NC(=S)NNC(=O)C2CC2)cc1	-1%[46.1 µM]	3%	11%	u	x	-1%	x	0%
O=C1CCN(Cc2ccc(O)cc2)CCN1[C@H](CO)c1ccccc1	x	9%	-4%	x	x	4%	x	17%
CCc1ccc(NC(=O)CC2C(=O)NCCN2C(=O)c2ccc(F)cc2)cc1 (stereo not given)	u	1%	-10%&-21%	u	x	6%	x	11%
CCCn1c(C(C)NC(C)=O)nc2ccccc21 (stereo not given)	x	-3%	-8%	x	3%	1%	1.8%	0%
CC(Oc1ccc(Br)cc1)C(=O)N1CCN(c2ccccn2)CC1 (stereo not given)	1%	1%	-24%	1%	x	-4%	x	-11%
O=C(NCCc1csc(-c2ccccc2)n1)c1ccc(Br)o1	x	-7%	-29%	x	8%	-18%	-9.1%	-23%
COc1ccc(NS(=O)(=O)c2cc3c(cc2C)N(C(C)=O)CCO3)cc1OC	x	13%	19%	x	x	-1%	x	2%
CCN(C(=O)c1cc2c(s1)-c1ccccc1OC2)c1cc(OC)ccc1OC	x	8%	0%	x	x	-16%	x	3%
Cc1ccccc1-c1nc(CS(=O)(=O)CC(=O)NCCCN2CCN(C)CC2)c(C)o1	u	3%	-8%&-4%	0%&18%[46.1 µM]	-1%	1%	2.4%	-2%
C[C@H](NC(=O)c1[nH]cnc1C(=O)Nc1ccccc1)C(=O)OC(C)(C)C	x	27%	-5%	x	x	-3%	x	-31%
O=C(c1c[nH]c2ccc(S(=O)(=O)N3CCOCC3)cc2c1=O)N1CCN(c2ccccn2)CC1	u	4%	-9%	u	-7%	-2%	1.9%	-9%
Cc1ccc(SCC(=O)O/N=C(\N)c2cccc([N+](=O)[O-])c2)cc1	-3%	2%	-5%	22%	11%	-25%	-2.0%	8%
COCCNC(=O)C(c1ccc(F)cc1)N(CCOC)C(=O)CCC(=O)Nc1ccccn1 (stereo not given)	6%[46.1 µM]	0%	3%	8%	x	23%	x	u
CCCCCn1c(CN2CCN(Cc3ccccc3)CC2)nc2c1c(=O)n(C)c(=O)n2C	-24%	20%	u	-7%	-1%	10%	-0.7%	-6%
Cc1ccc(NC(=O)NC(=O)N(C(C)C)S(C)(=O)=O)nc1	6%	17%	-3%	-2%	1%	7%	-17%	11%
O=C1NC(=O)C2C1C1(Cl)C(Cl)=C(Cl)C2(Cl)C1(Cl)Cl (stereo not given)	-5%[46.1 µM]	3%	-14%	-8%[46.1 µM]	x	x	x	x
N#Cc1ccc(Cn2cc(C=O)c3ccccc32)cc1	x	12%	u	x	x	5%	x	u

Reformatted with each value named: part of the list above
> CC(C)CN(C(=O)CN(C)C(=O)c1ccco1)c1c(N)n(CC(C)C)c(=O)[nH]c1=O
  Marburg entry inh = 16%; RE007 growth inh = 3%; 2A StopGo = -7%; LASV entry inh = 12%; Cruzain noTriton = x; SARS PLpro yeast = 1%; Cruzain inh Det = x; NS1 inh = x

> CC(=O)N1CC(C)Sc2ccc(S(=O)(=O)NCCc3ccccc3)cc21 (stereo not given)
  Marburg entry inh = x; RE007 growth inh = 3%; 2A StopGo = -4%; LASV entry inh = x; Cruzain noTriton = x; SARS PLpro yeast = 2%; Cruzain inh Det = x; NS1 inh = 0%

> COc1ccc(NS(=O)(=O)c2cc3c(cc2C)N(C(C)=O)CCO3)cc1OC
  Marburg entry inh = x; RE007 growth inh = 13%; 2A StopGo = 19%; LASV entry inh = x; Cruzain noTriton = x; SARS PLpro yeast = -1%; Cruzain inh Det = x; NS1 inh = 2%

> Cc1ccc(SCC(=O)O/N=C(\N)c2cccc([N+](=O)[O-])c2)cc1
  Marburg entry inh = -3%; RE007 growth inh = 2%; 2A StopGo = -5%; LASV entry inh = 22%; Cruzain noTriton = 11%; SARS PLpro yeast = -25%; Cruzain inh Det = -2.0%; NS1 inh = 8%

The list continues:
SMILES	Marburg entry inh	RE007 growth inh	2A StopGo	LASV entry inh	Cruzain noTriton	SARS PLpro yeast	Cruzain inh Det	NS1 inh
COc1ccc(N2CCN(CCNC(=O)CCC(=O)NNc3nc4ccccc4c4nc(C)nn34)CC2)cc1	x	-8%	-17%	x	x	2%	x	9%
CC1CC(=O)c2c(cc3c(-c4c(O)cc(O)c5c(O)c6c(cc45)OC(C)CC6=O)c(O)cc(O)c3c2O)O1 (stereo not given)	x	-8%	35µM*	x	x	0%	x	u
CC1CN(C2CCN(C(=O)COc3ccccc3)CC2)CC(C)O1 (stereo not given)	7%	20%	-19%	-1%	-3%	-24%	-1.2%	1%
Cc1oc2ncn(CC(C)C)c(=O)c2c1C(=O)NC(C)c1ccccc1 (stereo not given)	x	x	-14%	u	-5%	x	-2.8%	x
CC(C)(C)NC(=O)COC(=O)CCC(=O)c1cccs1	9%[46.1 µM]	-16%	-3%	4%	x	0%	x	x
CC(C)C(NC(=O)c1ccc2c(c1)OCO2)C(=O)N/N=C\c1ccco1 (stereo not given)	3%	-2%	x	11%	11%	4%	4.9%	2%
Cc1c(C(=O)NNC(=O)c2ccncc2)oc2ccc(Br)cc12	3%	-3%	0%	u	x	2%	x	x
CC(=O)c1ccc(NC(=O)c2sc3nc4n(c(=O)c3c2C)CCCCC4)cc1	u	5%	7%	u	x	2%	x	-20%
CCCCC(=O)Nc1ccc(NC(=S)NC(=O)CC)cc1OC	3%	0%	23%	-5%	2%	-13%	-6.4%	-2%
O=C(c1ccc(Cl)cc1)C(Cn1cncn1)C(Sc1ccccc1)c1ccccc1 (stereo not given)	u	11%	u	u	1%	-25%	-1.0%	2%
COc1ccccc1Nc1ncc2c(n1)CCN(Cc1cc(F)cc(F)c1)C2	x	x	-20%	13%[46.1 µM]	-1%	x	0.4%	x
CCN(CC)S(=O)(=O)c1cccc(-c2nnc(SCC(=O)NC3CCCCCCC3)n2N)c1	u	-7%	u	15%	20%	5%	1.3%	-1%
